# Compound activity from PubChem.
# NOMO-1 viab: STK33 inhibitor candidate reducing NOMO-1 cell viability. NOMO-1 AML viability, CellTiter-Glo luminescence, 72 h. inhibition, % (no concentration beside the values). hit rate 7.5% among 37,000;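 active = most replicates above 80%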;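 also: wells of about 30 µL received 25 nL stock; 0% = median of vehicle wells and 100% = reference inhibitor level; the first replicate is given; inactives centre near 10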
# Active calls of the source: *. An excerpt; count on the stated rates, not on these rows.
SMILES,NOMO-1 viab
C[C@@H]1CN([C@H](C)CO)C(=O)Cc2cc(NS(=O)(=O)c3cccs3)ccc2O[C@@H]1CN(C)S(=O)(=O)c1cccs1,17
N#CC(C(=O)Nc1ccccc1)=C1CCCC1,5
Cc1noc(C)c1S(=O)(=O)Nc1ccc2c(c1)C(=O)N([C@H](C)CO)C[C@H](C)[C@H](CN(C)S(=O)(=O)c1ccccc1)O2,16
Cc1noc(C)c1NC(=O)N(C)C[C@@H]1Oc2c(NS(=O)(=O)c3cn(C)cn3)cccc2C(=O)N([C@@H](C)CO)C[C@H]1C,14
CC1(C)CC(=O)C2=C(C1)N(Cc1ccco1)C(=O)C2(NC(=O)c1ccco1)C(F)(F)F (stereo unspecified),5
CNC[C@@H]1Oc2c(NS(=O)(=O)c3c(C)noc3C)cccc2C(=O)N([C@@H](C)CO)C[C@@H]1C,13
C[C@@H]1CN([C@H](C)CO)C(=O)Cc2cc(NS(C)(=O)=O)ccc2O[C@@H]1CN(C)S(=O)(=O)c1ccc(Cl)cc1,-16
Cc1noc(C)c1S(=O)(=O)N(C)C[C@H]1Oc2c(NS(=O)(=O)c3cn(C)cn3)cccc2C(=O)N([C@@H](C)CO)C[C@H]1C,21
Cc1ccc(S(=O)(=O)Nc2ccc3c(c2)C(=O)N([C@H](C)CO)C[C@@H](C)[C@@H](CN(C)S(=O)(=O)c2cn(C)cn2)O3)cc1,6
C[C@H](CO)N1C[C@H](C)[C@H](CN(C)C(=O)Nc2ccc3c(c2)OCO3)Oc2ccc(NC(=O)NC3CCCCC3)cc2CC1=O,10
COc1ccc(S(=O)(=O)N(C)C[C@H]2Oc3ccc(NC(=O)Nc4c(C)noc4C)cc3C(=O)N([C@@H](C)CO)C[C@H]2C)cc1,5
O=C(O)CCSc1n[nH]c2nc3ccccc3n12,15
C[C@@H]1CCCCO[C@@H](CN(C)C)[C@@H](C)CN([C@H](C)CO)C(=O)c2cc(NC(=O)Nc3cccc4ccccc34)ccc2O1,6
COc1ccc(-c2noc(CSc3nnc(-c4ccco4)n3-c3ccccc3)n2)cc1OC,3
C[C@@H]1CN([C@@H](C)CO)C(=O)Cc2cc(NS(=O)(=O)c3cn(C)cn3)ccc2O[C@@H]1CN(C)S(=O)(=O)c1cn(C)cn1,14
Cc1cc(C(=O)Nc2cccc3c2O[C@H](CN(C)S(=O)(=O)c2cn(C)cn2)[C@@H](C)CN([C@H](C)CO)C3=O)n(C)n1,13
C[C@@H]1CN([C@H](C)CO)C(=O)Cc2cc(NC(=O)NC3CCCCC3)ccc2O[C@H]1CN(C)S(=O)(=O)c1cccs1,6
COc1c(S(=O)(=O)NCC2CCCO2)ccc(Cl)c1Cl (stereo unspecified),-14
Cc1ccc(S(=O)(=O)Nc2ccc3c(c2)CC(=O)N([C@H](C)CO)C[C@@H](C)[C@@H](CN(C)S(=O)(=O)c2ccccc2)O3)cc1,17
Nc1ccc(-c2nnc(SCC(=O)Nc3cccc(C(F)(F)F)c3)n2-c2ccccc2)cc1,20
COc1ccc(NC(=O)COc2c(Cl)c(C)c(Cl)c(C)c2Cl)cc1[N+](=O)[O-],-8
Cc1ccc(S(=O)(=O)Nc2ccc3c(c2)CC(=O)N([C@H](C)CO)C[C@@H](C)[C@@H](CN(C)Cc2ccc(C(=O)O)cc2)O3)cc1,-16
O=C1S/C(=C\c2ccc(N3CCOCC3)o2)C(=O)N1c1ccccc1,132*
O=C(NCc1cccnc1)C1CCCN(S(=O)(=O)c2ccccc2)C1 (stereo unspecified),-16
CC(C)NC(=O)N(C)C[C@H]1Oc2ccc(NS(=O)(=O)c3cccs3)cc2C(=O)N([C@@H](C)CO)C[C@@H]1C,7

# The list goes on:
SMILES,NOMO-1 viab
Cc1ccc(S(=O)(=O)N(C)C[C@@H]2Oc3c(NC(=O)Nc4cccc5ccccc45)cccc3C(=O)N([C@H](C)CO)C[C@H]2C)cc1,13
Cc1ccc(S(=O)(=O)NCC(=O)Nc2ccc(C(N)=O)cc2)cc1,-1
C[C@@H]1CN([C@@H](C)CO)C(=O)c2cccc(NC(=O)Nc3cccc4ccccc34)c2O[C@H]1CN(C)S(=O)(=O)c1ccc(F)cc1,15
C[C@@H]1CN([C@@H](C)CO)C(=O)c2cc(NC(=O)CCCN(C)C)ccc2O[C@H]1CN(C)S(=O)(=O)c1cccs1,-8
COC(=O)c1ccc(NC(=O)CSc2cc(C)c3ccccc3n2)cc1,-1
O=C(CSc1nnc2scc(-c3ccccc3)n12)c1ccc2c(c1)OCCO2,-3
CCc1c(C)sc(NC(=S)Nc2cc(OC)c(Cl)cc2OC)c1C(=O)OC,31
C[C@@H]1CN([C@H](C)CO)C(=O)c2cccc(NS(=O)(=O)c3ccccc3)c2O[C@@H]1CN(C)Cc1ccc(Oc2ccccc2)cc1,45
COc1ccc(S(=O)(=O)Nc2ccc3c(c2)CC(=O)N([C@@H](C)CO)C[C@H](C)[C@H](CN(C)S(=O)(=O)c2ccc(F)cc2)O3)cc1,6
COc1ccc(Cl)cc1Nc1nc(N)nc(-c2cc3ccccc3o2)n1,95*
Cc1noc(C)c1S(=O)(=O)Nc1ccc2c(c1)C(=O)N([C@H](C)CO)C[C@@H](C)[C@H](CN(C)C(=O)Nc1cccc3ccccc13)O2,2
CCN(CC)C(=O)CSc1nc2sc(C)c(C)c2c(=O)[nH]1,11
CCc1ccccc1NC(=O)CN(C)S(=O)(=O)c1ccc2ccccc2c1,-5
O=c1c(-c2ccccc2)coc2cc(O)ccc12,13
C[C@H](CO)N1C[C@H](C)[C@H](CN(C)S(=O)(=O)c2ccccc2)Oc2ccc(NC(=O)Cc3cn(C)c4ccccc34)cc2C1=O,29
C[C@H]1CN([C@@H](C)CO)C(=O)c2cc(NC(=O)NC3CCCCC3)ccc2O[C@@H]1CN(C)S(C)(=O)=O,9
Cc1ccc(S(=O)(=O)Nc2ccc3c(c2)C(=O)N([C@H](C)CO)C[C@H](C)[C@H](CN(C)Cc2ccc(C(=O)O)cc2)O3)cc1,17
Cc1ccc(S(=O)(=O)N2C(=O)CCC2C(=O)Nc2ccc(I)cc2)cc1 (stereo unspecified),-1
C[C@H]1CN([C@@H](C)CO)C(=O)c2cccc(NC(=O)Nc3cccc4ccccc34)c2O[C@H]1CN(C)S(=O)(=O)c1ccc(F)cc1,8
C[C@H](CO)N1C[C@H](C)[C@H](CN(C)Cc2ccccc2)Oc2ccc(NC(=O)NC3CCCCC3)cc2CC1=O,33
C[C@H]1CN([C@@H](C)CO)C(=O)Cc2cc(NC(=O)Nc3ccc(F)cc3)ccc2O[C@@H]1CN(C)Cc1ccc2c(c1)OCO2,3
Cc1cccc(NC(=O)CSc2nnc(-c3ccc(Cl)cc3)n2-c2cccc(C)c2)c1,128*
O=C(c1ccccc1Cl)n1nc(-c2ccccc2)nc1NCc1ccco1,-3
C[C@H](CO)N1C[C@H](C)[C@H](CN(C)CC2CCCCC2)Oc2c(NS(=O)(=O)c3cn(C)cn3)cccc2C1=O,-1
C[C@@H]1CN([C@H](C)CO)C(=O)c2cccc(NS(=O)(=O)c3ccccc3)c2O[C@@H]1CN(C)Cc1ccc(-c2ccccc2)cc1,61

# More results follow.
SMILES,NOMO-1 viab
COc1cc(NC(=O)Cc2ccc(F)cc2)cc(S(=O)(=O)c2ccc(Cl)cc2)c1,75
CC(C)NC(=O)Nc1ccc2c(c1)C(=O)N([C@@H](C)CO)C[C@@H](C)[C@H](CN(C)CC1CCCCC1)O2,-13
CCOc1ccc(NC(=O)CSc2nnc(-c3ccc(Cl)cc3)n2C)cc1,-13
COc1ccc(NC(=O)Cn2cnc3sc4c(c3c2=O)CCC(C)C4)cc1 (stereo unspecified),12
CNC[C@H]1Oc2ccc(NS(=O)(=O)c3ccc(C)cc3)cc2C(=O)N([C@@H](C)CO)C[C@H]1C,-1
C[C@@H]1CN([C@H](C)CO)C(=O)Cc2cc(NC(=O)Nc3ccc(C(F)(F)F)cc3)ccc2O[C@H]1CN(C)C,-9
C[C@@H]1CN([C@@H](C)CO)C(=O)c2cc(NS(=O)(=O)c3ccccc3)ccc2O[C@H]1CN(C)C(=O)Nc1cccc2ccccc12,-9
O=C(CSc1ncn(-c2ccccc2)n1)Nc1ccc(Cl)cc1Cl,19
CNC[C@H]1Oc2ccc(NC(=O)Nc3ccc4c(c3)OCO4)cc2CC(=O)N([C@H](C)CO)C[C@H]1C,4
Cc1cc2nc(Nc3nc4ccccc4c(=O)[nH]3)nc(C)c2cc1C,127*
C[C@@H]1CN([C@@H](C)CO)C(=O)c2cccc(NC(=O)Nc3ccc4c(c3)OCO4)c2O[C@@H]1CN(C)S(=O)(=O)c1ccc(Cl)cc1,35
C=C1C(=O)O[C@@H]2[C@H]1[C@H](O)C[C@]1(C)[C@@H](O)CC=C(C)[C@@H]21,115*
C[C@@H]1CN([C@@H](C)CO)C(=O)c2cccc(NC(=O)Nc3ccc4c(c3)OCO4)c2O[C@H]1CN(C)S(=O)(=O)c1cccs1,-9
Cc1cccc(OCC(=O)Nc2cccc(-c3nc4cc(Cl)ccc4o3)c2C)c1,33
O=C(CCN1C(=O)c2ccccc2C1=O)Nc1ccc(-c2nc3ccccc3o2)cc1,22
Cc1c(NC(=O)CCN2C(=O)c3ccccc3C2=O)cccc1C(=O)O,-24
CCOC(=O)c1cc[nH]c1C,34
Cc1noc(C)c1S(=O)(=O)Nc1ccc2c(c1)C(=O)N([C@H](C)CO)C[C@H](C)[C@@H](CN(C)C(=O)NC1CCCCC1)OCCCC[C@@H](C)O2,41
C[C@H](CO)N1C[C@H](C)[C@@H](CN(C)Cc2ccc(-c3ccccc3)cc2)Oc2ccc(NC(=O)C3CCCCC3)cc2C1=O,29
C[C@@H]1CCCCO[C@@H](CN(C)C(=O)Nc2ccc(F)cc2)[C@@H](C)CN([C@H](C)CO)C(=O)c2cc(NC(=O)CCC(F)(F)F)ccc2O1,7
C[C@@H]1CN([C@@H](C)CO)C(=O)c2cccc(NC(=O)Nc3ccc(F)cc3)c2O[C@@H]1CN(C)S(=O)(=O)c1ccc(Cl)cc1,82*
COc1ccc(NC(=O)N(C)C[C@H]2Oc3ccc(N(C)C)cc3C(=O)N([C@H](C)CO)C[C@@H]2C)cc1,10
O=C(CNC(=O)c1ccco1)Nc1ccc(F)cc1,-16
COc1cc(OC)c2c(=O)cc(-c3ccccc3)oc2c1,4
COc1ccc(-c2cc(C(F)(F)F)n3nc(C(=O)NCCCN4CCOCC4)cc3n2)cc1OC,3

# Structural class: the compounds so far with a CF3 group
SMILES,NOMO-1 viab
CC1(C)CC(=O)C2=C(C1)N(Cc1ccco1)C(=O)C2(NC(=O)c1ccco1)C(F)(F)F (stereo unspecified),5
Nc1ccc(-c2nnc(SCC(=O)Nc3cccc(C(F)(F)F)c3)n2-c2ccccc2)cc1,20
C[C@@H]1CN([C@H](C)CO)C(=O)Cc2cc(NC(=O)Nc3ccc(C(F)(F)F)cc3)ccc2O[C@H]1CN(C)C,-9
C[C@@H]1CCCCO[C@@H](CN(C)C(=O)Nc2ccc(F)cc2)[C@@H](C)CN([C@H](C)CO)C(=O)c2cc(NC(=O)CCC(F)(F)F)ccc2O1,7
COc1ccc(-c2cc(C(F)(F)F)n3nc(C(=O)NCCCN4CCOCC4)cc3n2)cc1OC,3

# Following part
SMILES,NOMO-1 viab
CNC(=S)N1N=C2c3ccccc3CCC2C1c1ccc(OC)cc1 (stereo unspecified),32
C[C@@H]1CCCCO[C@H](CN(C)C(=O)Nc2ccc(F)cc2)[C@@H](C)CN([C@H](C)CO)C(=O)c2cc(NC(=O)NC3CCCCC3)ccc2O1,18
Cc1noc(C)c1S(=O)(=O)Nc1ccc2c(c1)C(=O)N([C@H](C)CO)C[C@H](C)[C@@H](CN(C)Cc1ccc(Cl)c(Cl)c1)O2,46
C[C@@H]1CN([C@H](C)CO)C(=O)c2cccc(NS(C)(=O)=O)c2O[C@@H]1CN(C)C(=O)Nc1ccc2c(c1)OCO2,14
COc1cccc2cc(-c3nnc(SCC(=O)Nc4cccc(F)c4)n3C)oc12,12
FC(F)(F)C1(C(F)(F)F)N=C(c2ccccc2)NC(c2ccccc2)=N1,48
COc1ccccc1CNC(=O)c1cc(-c2ccncc2)nc2c(Cl)cccc12,23
Cc1ccc(S(=O)(=O)N(C)C[C@@H]2Oc3c(NC(=O)c4ccc(-c5nccs5)cc4)cccc3C(=O)N([C@@H](C)CO)C[C@H]2C)cc1,14
O=C(c1ccc(Cl)cc1)N1CCCc2ccccc21,21
CC(C)NC(=O)Nc1ccc2c(c1)C(=O)N([C@@H](C)CO)C[C@H](C)[C@H](CN(C)Cc1ccc(Oc3ccccc3)cc1)O2,18
Cc1ccc(S(=O)(=O)N(C)C[C@@H]2Oc3ccc(NC(=O)Nc4cccc5ccccc45)cc3C(=O)N([C@H](C)CO)C[C@@H]2C)cc1,11
COc1ccc(CN(C)C[C@@H]2Oc3c(NS(=O)(=O)c4cccs4)cccc3C(=O)N([C@H](C)CO)C[C@@H]2C)cc1,-5
O=C(CSc1nnc(-c2cccc3ccccc23)n1-c1ccccc1)NC1CC1,1
COc1ccc(OC)c(C(C)NC(=O)Nc2cccc(C(C)=O)c2)c1 (stereo unspecified),-2
C[C@@H]1CN([C@H](C)CO)C(=O)Cc2cc(NC(=O)Nc3ccccc3)ccc2O[C@H]1CN(C)Cc1ccncc1,-6
C[C@H](CO)N1C[C@H](C)[C@H](CN(C)C(=O)Nc2ccc3c(c2)OCO3)Oc2c(NC(=O)c3ccncc3)cccc2C1=O,6

# Structural class, the entries above containing an NH in an aromatic ring
SMILES,NOMO-1 viab
O=C(O)CCSc1n[nH]c2nc3ccccc3n12,15
CCN(CC)C(=O)CSc1nc2sc(C)c(C)c2c(=O)[nH]1,11
Cc1cc2nc(Nc3nc4ccccc4c(=O)[nH]3)nc(C)c2cc1C,127*
CCOC(=O)c1cc[nH]c1C,34

# 3 neighbouring entries from above:
SMILES,NOMO-1 viab
COc1ccccc1CNC(=O)c1cc(-c2ccncc2)nc2c(Cl)cccc12,23
Cc1ccc(S(=O)(=O)N(C)C[C@@H]2Oc3c(NC(=O)c4ccc(-c5nccs5)cc4)cccc3C(=O)N([C@@H](C)CO)C[C@H]2C)cc1,14
O=C(c1ccc(Cl)cc1)N1CCCc2ccccc21,21
